FGF22 binding: binders of recombinant human FGF22 by thermal shift. Q9HCT0. calls only at 9.99 µM. SYPRO orange fluorescence; percent of sucrose octasulfate shift, DMSO zero. 340,000 tested, 1.5% active. AID 651658;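 active means melting point raised past a set limit in the mean and every replicate; inconclusive means no clear call; three in four hits are not shown here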
HNF4A DNA FP: change in binding of human HNF4 alpha to DNA | 360,000 tested, 0.3% active | HNF4a-FITC DNA binding, fluorescence polarization, 1 h | AID 1224865 | activity change, % at 10 µM | P41235; in the data active means activity change above about 30%, passing the limit was not always enough;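 further: controls were the assay level and a saturating level of protein; the project sought stronger binding though the title names inhibitors; some compounds called inactive have numbers as strong as hits; positive values seem to mean higher polarization but the record does not say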
Target sequence (P41235 whole entry, looked up): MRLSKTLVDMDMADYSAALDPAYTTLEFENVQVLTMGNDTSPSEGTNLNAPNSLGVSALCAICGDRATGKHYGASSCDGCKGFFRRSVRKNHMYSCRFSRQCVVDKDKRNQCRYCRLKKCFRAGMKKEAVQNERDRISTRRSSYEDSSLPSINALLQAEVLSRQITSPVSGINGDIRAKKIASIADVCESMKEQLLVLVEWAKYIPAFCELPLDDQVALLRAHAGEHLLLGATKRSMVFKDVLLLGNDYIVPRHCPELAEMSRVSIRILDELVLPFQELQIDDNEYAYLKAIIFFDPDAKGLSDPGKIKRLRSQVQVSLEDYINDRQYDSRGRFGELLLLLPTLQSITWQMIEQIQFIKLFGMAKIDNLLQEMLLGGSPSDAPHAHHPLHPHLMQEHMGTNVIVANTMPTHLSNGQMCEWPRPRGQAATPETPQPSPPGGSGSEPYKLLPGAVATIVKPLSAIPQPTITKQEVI
RanGTP-Imp inh: disruptors of Ran-importin-beta complex formation – biochemical, FRET, CFP-Ran, YFP-importin-beta, homogeneous, primary screen | cell-free CFP-Ran/YFP-importin-beta FRET ratio | inhibition, % (concentration not given with the values) | 300,000 tested, 1.1% active;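 active means most replicates above 15%; inconclusive means exactly half above 15%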;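 further: 0% = DMSO wells and 100% = Ran loaded with GDP instead of GTP; wells of about 40 µL received 100 nL stock; the first replicate is given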
MLL AF4-AF9 inh: MLL-AF4/AF9 protein interaction inhibition. P42568. AlphaScreen, biotin-AF4 peptide binding to FLAG-AF9. inhibition, % at 10 µM. 350,000 tested, 0.47% active;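 active means every replicate reaching a set inhibition limit, whatever the replicate mean, cut at about 25% in these data; inconclusive means mean inhibition reaches that limit but some replicates miss it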;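 further: 0% = plate neutral control median and 100% = total signal loss; the record names both 10 and 1 µM as test concentration; the first replicate is given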
Target sequence (P42568 whole entry, looked up): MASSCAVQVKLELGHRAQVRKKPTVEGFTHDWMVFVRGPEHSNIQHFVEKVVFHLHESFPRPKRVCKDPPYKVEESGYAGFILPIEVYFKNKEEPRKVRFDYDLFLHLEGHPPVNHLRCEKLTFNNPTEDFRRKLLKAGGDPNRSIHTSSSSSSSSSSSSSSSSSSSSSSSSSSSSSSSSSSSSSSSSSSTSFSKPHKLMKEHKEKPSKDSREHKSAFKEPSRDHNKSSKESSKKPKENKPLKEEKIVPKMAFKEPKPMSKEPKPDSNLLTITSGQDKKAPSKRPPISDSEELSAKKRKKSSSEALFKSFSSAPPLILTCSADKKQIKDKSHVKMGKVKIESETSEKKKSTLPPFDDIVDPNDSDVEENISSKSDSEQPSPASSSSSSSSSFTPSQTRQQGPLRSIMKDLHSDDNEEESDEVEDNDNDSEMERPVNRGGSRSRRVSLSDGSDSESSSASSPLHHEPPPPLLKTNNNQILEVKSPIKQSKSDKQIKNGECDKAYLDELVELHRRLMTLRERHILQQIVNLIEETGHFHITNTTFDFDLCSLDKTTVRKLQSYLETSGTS
* hit, by the source's call; i = inactive; ? = inconclusive; / = not tested or not shown; + = active, no number. Only part of the results is shown, so the mix of outcomes need not match the whole.

SMILES | FGF22 binding | HNF4A DNA FP | RanGTP-Imp inh | MLL AF4-AF9 inh
Cc1ccccc1OCC(=O)N/N=C/c1cccc(Oc2ccc([N+](=O)[O-])cc2[N+](=O)[O-])c1 | / | -2.6 | ? | /
O=C1C(Cc2ccccc2)Nc2ncnc(N3CCc4ccccc4C3)c2N1Cc1ccc(Cl)cc1 (configuration not stated) | / | 1.3 | ? | /
C/C(=N\NC(=O)Cc1cccn1C)c1cccs1 | / | -1.9 | 7.5 | /
CC(/C=N/NC(=O)CSc1nc(C)cc(C)n1)=C\c1ccccc1 | / | 6.5 | ? | /
CC(=O)NC/C(C)=N\Nc1ccc([N+](=O)[O-])cc1 | / | 10 | ? | /
Cc1ccc(-c2[nH]ncc2/C=N/n2c(COc3ccccc3C)nc3ccccc3c2=O)cc1 | / | 3.5 | 2.9 | /
CCc1cc(C(=O)N/N=C/c2c(C)[nH]c3ccccc23)cs1 | / | -0.3 | 5.3 | /
CCOc1ccc(-c2c(C(=O)N/N=C/c3ccc(C)s3)nnn2-c2nonc2N)cc1 | / | -1.2 | 5.8 | /
O=C(COc1ccc([N+](=O)[O-])cc1)N/N=C/c1cc([N+](=O)[O-])ccc1N1CCOCC1 | / | -3.8 | -0.7 | /
CC1CCC/C(=N/Nc2nc3ccccc3s2)C1 (configuration not stated) | / | 4.4 | 8.2 | /
COc1ccc(/C=c2/sc3nc(-c4ccccc4)c(-c4ccccc4)n3c2=O)cc1 | / | -6.3 | 7.4 | /
CC(C)OC(=O)/C(C#N)=C/c1ccc(-c2ccc(SC(F)F)cc2)o1 | / | -1.7 | ? | /
CCN1C(=O)/C(=C/C=C2\C=CN(CC)c3ccccc32)SC1=S | / | 1.5 | 1.4 | /
O=C1NN(c2ccccc2)C(=O)/C1=C/c1coc2ccccc2c1=O | / | -3.0 | -2.0 | /
Cc1ccc(CN2CCN(CC(=O)N/N=C/c3c[nH]c4ccccc34)CC2)cc1 | / | -0.1 | 4.1 | /
CCn1cc(/C=N\NC(=O)c2ccc(F)cc2)cn1 | / | -0.5 | 4.9 | /
Cc1ccc(S(=O)(=O)Oc2ccccc2/C=N/NC(=O)c2c(Cl)cnn2C)cc1 | / | 1.1 | -0.1 | /
S=c1[nH]nc(COc2ccccc2)n1/N=C/c1cccs1 | / | 0.9 | 0.6 | /
O=C(N/N=C/c1ccc(OC(=O)c2ccc3c(c2)OCO3)cc1)c1cncc(Br)c1 | / | 8.8 | 1.0 | /
NS(=O)(=O)c1ccc(NC(=O)c2cc(-c3cccs3)nc3ccccc23)cc1 | / | -1.5 | 6.4 | /
COc1ccc(CN(C)C[C@H]2Oc3ccc(NC(=O)CCCCCC(=O)Nc4ccccc4N)cc3CC(=O)N([C@@H](C)CO)C[C@@H]2C)cc1 | i | / | / | 0.1
CC=Cc1ccc2n(c1=O)C[C@@H]1[C@@H](CO)[C@H](C(=O)NCCCN(C)C)N(Cc3cocn3)[C@H]21 (mixture of isomers) | i | / | / | 0.5
O=C(C[C@@H]1CC[C@H](NC(=O)CC2CC2)[C@H](CO)O1)NCc1ccc(-c2ccccc2)cc1 | i | / | / | -0.4
COc1cccc(S(=O)(=O)N(C)C[C@H]2Oc3cc(C#CCC(C)C)ccc3S(=O)(=O)N([C@@H](C)CO)C[C@@H]2C)c1 | i | / | / | -1.5
Cc1ccc(S(=O)(=O)N(C)C[C@@H]2Oc3ccc(NS(=O)(=O)c4ccccc4)cc3CC(=O)N([C@H](C)CO)C[C@@H]2C)cc1 | i | / | / | -4.7
New compounds follow:
SMILES | FGF22 binding | HNF4A DNA FP | RanGTP-Imp inh | MLL AF4-AF9 inh
C[C@H](NC(=O)C[C@@H]1C=C[C@@H](NS(=O)(=O)c2cccc(F)c2)[C@H](CO)O1)c1ccccc1 | i | / | / | -0.2
C[C@H]1CCCCO[C@@H](CN(C)Cc2ccccc2)[C@@H](C)CN([C@@H](C)CO)C(=O)c2cc(NC(=O)Nc3ccc(C(F)(F)F)cc3)ccc2O1 | i | / | / | -1.6
COCC(=O)N1C[C@H](C)[C@H](OC)CN(C)C(=O)c2cc(NC(=O)Nc3ccccc3)ccc2OC[C@H]1C | i | / | / | 1.9
O=C(C[C@H]1CC[C@H](NC(=O)c2ccc3c(c2)OCO3)[C@@H](CO)O1)NCc1ccc(Oc2ccccc2)cc1 | i | / | / | 5.2
O=C(NC1CCC1)[C@H]1[C@H](CO)[C@H]2Cn3c(ccc(/C=C/c4ccccc4)c3=O)[C@H]2N1Cc1cncnc1 | i | / | / | -1.5
C[C@@H]1CN([C@@H](C)CO)C(=O)c2cc(-c3ccc(F)cc3)cnc2O[C@@H]1CN(C)C(=O)c1ccccn1 | i | / | / | -1.9
CCC(=O)N1C[C@@H](C)[C@@H](OC)CN(C)C(=O)c2cc(NC(=O)c3ccc(F)cc3)ccc2OC[C@H]1C | i | / | / | 0.8
C[C@@H]1CN([C@@H](C)CO)C(=O)c2cc(C#Cc3cccc(F)c3)cnc2O[C@H]1CN(C)C(=O)C1CCC1 | i | / | / | 0.7
CO[C@@H]1CC[C@H]2CCOc3ccc(C#N)cc3C(=O)N(C)[C@@H](C)C(=O)N(C)C[C@H]1O2 | i | / | / | 2.3
C[C@H]1ON(c2ccccc2)[C@@H](c2ccccc2)[C@@H]1C(=O)N1C(=O)OC[C@@H]1c1ccccc1 | i | / | / | -3.5
Cn1cnc(S(=O)(=O)N2C[C@H](O)COC[C@H]3O[C@H](CC(=O)N4CCN(c5ccccc5)CC4)CC[C@@H]32)c1 | i | / | / | -0.8
C[C@H]1CN([C@@H](C)CO)C(=O)c2cc(NC(=O)CCN3CCOCC3)ccc2O[C@@H]1CN(C)S(=O)(=O)c1ccc(F)cc1 | i | / | / | -3.0
O=C(NCc1ccccc1)[C@@H]1CCCN1C(=O)[C@H]1CCCN1C(=O)N1CCCCC1 | i | / | / | -1.8
Cc1noc(C)c1NC(=O)Nc1ccc2c(c1)C(=O)N([C@H](C)CO)C[C@H](C)[C@@H](CN(C)C(=O)Cc1ccccc1)OCCCC[C@@H](C)O2 | i | / | / | -2.1
COc1ccc(NC(=O)N(C)C[C@@H]2Oc3ccc(NS(=O)(=O)c4ccc(OC)cc4)cc3CC(=O)N([C@H](C)CO)C[C@@H]2C)cc1 | + | / | / | 0.4
C[C@H]1CN([C@@H](C)CO)S(=O)(=O)c2ccc(C3=CCCC3)cc2O[C@@H]1CN(C)C(=O)c1cccnc1 | i | / | / | -2.5
COc1ccc(S(=O)(=O)Nc2ccc3c(c2)C(=O)N([C@H](C)CO)C[C@H](C)[C@H](CN(C)C(=O)Nc2ccc(F)cc2)OCCCC[C@H](C)O3)cc1 | i | / | / | -0.3
COc1ccc2c3c([nH]c2c1)[C@@H](CO)N(S(C)(=O)=O)CC31CN(C(=O)Nc2ccccc2)C1 | i | / | / | -0.9
COc1ccccc1-c1cn(CC[C@H]2CC[C@@H](NC(=O)C3CCCCC3)[C@@H](CO)O2)nn1 | i | / | / | -2.1
C[C@@H]1COc2cccc(NC3CC3)c2S(=O)(=O)N1 | i | / | / | -1.8
C[C@@H]1CN([C@H](C)CO)C(=O)c2cc(NC(=O)Cc3cn(C)c4ccccc34)ccc2O[C@H]1CN(C)Cc1ccncc1 | i | / | / | 1.9
COc1ccc(S(=O)(=O)Nc2ccc3c(c2)CC(=O)N([C@@H](C)CO)C[C@H](C)[C@H](CN(C)CC2CCCCC2)O3)cc1 | i | / | / | 1.2
CCCNC(=O)N1C[C@H](O)COC[C@@H]2O[C@H](CC(=O)NCc3ccc(Cl)c(Cl)c3)CC[C@H]21 | i | / | / | -0.9
O=C(CC(F)(F)F)N1C[C@H]2[C@@H](c3ccccc31)[C@@H](CO)N2C(=O)C1CCCCC1 | i | / | / | -0.4
C[C@@H]1CN([C@H](C)CO)C(=O)c2cc(NC(=O)Nc3ccc4c(c3)OCO4)ccc2O[C@@H]1CN(C)C(=O)Nc1ccc2c(c1)OCO2 | i | / | / | 5.5
Next entries follow.
SMILES | FGF22 binding | HNF4A DNA FP | RanGTP-Imp inh | MLL AF4-AF9 inh
COCCOC(=O)N1C(=O)[C@@]2(c3cc(C#Cc4ccc(OC)cc4)ccc31)[C@H](C(=O)N1CCN(c3ncccn3)CC1)[C@H]1C(=O)O[C@H](c3ccccc3)[C@H](c3ccccc3)N1[C@@H]2c1ccc(OCCO)cc1 | i | / | / | -4.0
COc1ccc2c3c([nH]c2c1)[C@H](CO)N(Cc1cc(F)ccc1F)CC31CN(C(=O)CN(C)C)C1 | i | / | / | -2.8
CC(C)NC(=O)Nc1ccc2c(c1)C(=O)N([C@@H](C)CO)C[C@@H](C)[C@H](CN(C)S(C)(=O)=O)OCCCC[C@@H](C)O2 | i | / | / | -11
CO[C@H]1CN(C)C(=O)c2ccc(NS(=O)(=O)c3ccccc3C)cc2OC[C@@H](C)NC[C@@H]1C | i | / | / | -4.3
COc1ccc(NC(=O)N(C)C[C@@H]2Oc3ccc(NS(=O)(=O)c4ccc(F)cc4)cc3CC(=O)N([C@H](C)CO)C[C@H]2C)cc1 | i | / | / | -1.3
CCC(=O)N[C@@H]1CC[C@H](CC(=O)OC)O[C@@H]1CO | i | / | / | -1.4
COc1ccc(NC(=O)N(C)C[C@@H]2OCCCC[C@H](C)Oc3ccc(N(C)C)cc3C(=O)N([C@H](C)CO)C[C@H]2C)cc1 | i | / | / | 3.2
C[C@@H]1CN([C@H](C)CO)C(=O)c2c(c3ccccc3n2C)-c2ccccc2CO[C@H]1CN(C)C(=O)Nc1cccc(F)c1 | i | / | / | -2.0
O=C(C1CC1)N1C[C@@H]2[C@H](c3ccccc31)[C@H](CO)N2C(=O)c1ccccc1 | i | / | / | -1.5
C[C@@H]1CN([C@H](C)CO)S(=O)(=O)c2ccc(C#Cc3cccnc3)cc2O[C@@H]1CN(C)C(=O)CN(C)C | i | / | / | -8.8
CC(C)NC(=O)N(C)C[C@H]1Oc2ccc(N(C)C)cc2CC(=O)N([C@H](C)CO)C[C@H]1C | i | / | / | -1.0
O=C(C[C@@H]1CC[C@@H](NC(=O)c2ccncc2)[C@H](CO)O1)NCC1CC1 | i | / | / | -0.9
CC(C)NC(=O)Nc1ccc2c(c1)C(=O)N([C@@H](C)CO)C[C@H](C)[C@H](CN(C)C(=O)Nc1cccc3ccccc13)O2 | i | / | / | -2.2
CCC(=O)Nc1ccc2c(c1)OC[C@@H](C)N(Cc1ccccc1)C[C@@H](C)[C@H](OC)CN(C)C2=O | i | / | / | -7.4
COCc1cn(CC[C@@H]2CC[C@@H](NC(=O)Nc3c(C)noc3C)[C@@H](CO)O2)nn1 | i | / | / | -0.5
O=C(O)C[C@H]1CC[C@H]2[C@@H](COC[C@H](O)CN2S(=O)(=O)c2ccc(Oc3ccccc3)cc2)O1 | i | / | / | 2.3
COc1ccc2c3c([nH]c2c1)[C@H](CO)N(S(C)(=O)=O)CC31CCN(C(=O)c2ccncc2)CC1 | i | / | / | 0.5
CC(C)NC(=O)N(C)C[C@H]1Oc2c(cccc2N(C)C)C(=O)N([C@@H](C)CO)C[C@@H]1C | i | / | / | -0.8
COCC#Cc1ccc([C@H]2[C@H](CO)N3C(=O)CN(C(=O)c4ccncc4)C[C@@H]23)cc1 | i | / | / | -4.0
COc1ccccc1-c1ccc2n(c1=O)C[C@@H]1[C@@H](CO)[C@H](C(=O)NCC3CC3)N(S(C)(=O)=O)[C@H]21 | i | / | / | 2.1
CN1C(=O)c2cc(NC(=O)c3cccs3)ccc2OC[C@H]2O[C@@H](CC(=O)N3CCCCC3)CC[C@H]21 | i | / | / | -0.8
C[C@@H]1CN([C@@H](C)CO)C(=O)c2cc(NC(=O)CCCCCC(=O)Nc3ccccc3N)ccc2O[C@H]1CN(C)C | i | / | / | 2.0
C[C@H](CO)N1C[C@H](C)[C@@H](CN(C)Cc2ccccc2)Oc2ccc(NS(=O)(=O)c3ccccc3)cc2CC1=O | i | / | / | 1.3
C[C@@H]1CCCCO[C@H](CN(C)C(=O)Nc2cccc3ccccc23)[C@@H](C)CN([C@@H](C)CO)C(=O)c2cc(NC(=O)CCCN(C)C)ccc2O1 | i | / | / | 2.9
O=C(Cc1cccnc1)N[C@H]1CC[C@H](CCn2cc(Cc3ccccc3)nn2)O[C@@H]1CO | i | / | / | -2.5
O=C(Nc1ccccc1)N1C[C@@H]2[C@H](c3ccccc31)[C@H](CO)N2Cc1cocn1 | i | / | / | -3.6
